AF4-AF9 inh: inhibitors of AF4 peptide binding to AF9, primary screen, biochemical, AlphaScreen, biotin-AF4 peptide, FLAG-AF9, single point. Protein AF-9 (Homo sapiens), P42568. inhibition, % at 10 µM. 350,000 tested, 0.47% active. AID 651704, 2012;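 active = every replicate reaching a set inhibition limit, whatever the replicate mean, cut at about 25% in these data; inconclusive = mean inhibition reaches that limit but some replicates miss it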;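 also: 0% = plate neutral control median and 100% = total signal loss; the record names both 10 and 1 µM as test concentration; the first replicate is given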
Target sequence (P42568 whole entry, looked up): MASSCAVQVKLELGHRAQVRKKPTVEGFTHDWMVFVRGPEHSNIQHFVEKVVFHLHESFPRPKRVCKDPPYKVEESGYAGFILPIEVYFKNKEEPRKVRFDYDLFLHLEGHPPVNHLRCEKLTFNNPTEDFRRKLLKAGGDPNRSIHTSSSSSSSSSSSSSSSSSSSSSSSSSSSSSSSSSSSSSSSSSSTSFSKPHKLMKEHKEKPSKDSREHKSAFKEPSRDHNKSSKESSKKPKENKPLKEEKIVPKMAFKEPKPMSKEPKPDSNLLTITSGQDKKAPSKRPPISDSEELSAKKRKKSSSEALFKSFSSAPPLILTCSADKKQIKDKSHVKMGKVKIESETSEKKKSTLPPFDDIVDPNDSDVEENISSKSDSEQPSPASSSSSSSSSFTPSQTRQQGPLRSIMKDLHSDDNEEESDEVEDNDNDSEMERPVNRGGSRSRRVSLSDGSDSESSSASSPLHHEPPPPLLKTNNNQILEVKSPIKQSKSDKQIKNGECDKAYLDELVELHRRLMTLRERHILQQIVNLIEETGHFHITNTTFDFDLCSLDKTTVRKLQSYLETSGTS
Calb FLC: C. albicans growth inhibition with fluconazole, primary screen, CaCi-2 strain, Alamar Blue fluorescence; 300,000 tested, 0.57% active; AID 1979, 2009; C. albicans CaCi-2 (fluconazole-resistant clinical isolate) + fluconazole, 48 h; growth inhibition, % (test concentration not listed);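 active = most replicates above 75%; inconclusive = exactly half above 75%; inactive = most below 75%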;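 also: all wells also contain fluconazole at 8 µg/ml as a sub-toxic cotreatment; 0% = median of DMSO wells and 100% = median of geldanamycin control wells; wells of about 8 µL received 7.5 nL stock; the first replicate is given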
Ecoli rRNA inh: reduced GFP signal of wild-type E. coli, primary screen, bacterial rRNA inhibitor project, GFP/RFP fluorescence, OD600, single point; E. coli WT GFP vs humanized-ribosome RFP mutants, 24 h; hits give low values; DMSO median 0, no signal -100; AID 720706, 2013; GFP signal change (wild-type ribosome), % (test concentration not listed); 350,000 tested, 1.6% active;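 active = significant combined selectivity score with lowered wild-type GFP, culture density cut under 30%, mutant RFP and density less affected; inactive = any of these conditions unmet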; also: one replicate is shown; some compounds called inactive have numbers as strong as hits
ALR inh: inhibitors of human ALR sulfhydryl oxidase, primary screen, biochemical, H2O2 detection, HRP-luminol luminescence, single point; purified ALR, DTT oxidation; inhibition, % (test concentration not listed); 290,000 tested, 3.8% active; AID 485317, 2010;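 active = mean and each replicate at 75% or more; inconclusive = only one of the two met; inactive = neither met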;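 also: stock transfer was 7.5 nL into about 7.5 µL; 0% = neutral wells and 100% = wells with inactivated enzyme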
Target sequence (P55789 whole entry, looked up): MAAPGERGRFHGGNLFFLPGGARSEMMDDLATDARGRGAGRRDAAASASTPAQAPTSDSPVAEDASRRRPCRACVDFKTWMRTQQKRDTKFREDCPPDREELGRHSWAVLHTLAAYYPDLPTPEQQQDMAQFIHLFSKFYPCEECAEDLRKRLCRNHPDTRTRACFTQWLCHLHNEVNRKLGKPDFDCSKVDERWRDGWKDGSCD
RanGTP-Impb inh: inhibitors of RanGTP-importin-beta interaction, primary screen, biochemical, FRET, CFP-Ran, YFP-importin-beta, homogeneous. AID 2216, 2009. Ran GTPase (GTP-bound) - importin-beta complex. inhibition, % (test concentration not listed). 300,000 tested, 1.1% active. cell-free CFP-Ran/YFP-importin-beta FRET ratio;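 active = most replicates above 15%; inconclusive = exactly half above 15%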;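 also: 0% = DMSO wells and 100% = Ran loaded with GDP instead of GTP; wells of about 40 µL received 100 nL stock; the first replicate is given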
T cruzi inh: inhibitors of intracellular T. cruzi growth, primary screen, luminescence, NIH3T3 host cells; AID 1885, 2009; 300,000 tested, 1.4% active; inhibition, % (test concentration not listed); T. cruzi beta-gal in NIH3T3, 90 h;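 active = mean inhibition across valid replicates above about 55%, limit read from the data; inconclusive = mean below that limit but half or more replicates reach it; inactive = mean below it, under half of replicates reach it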;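 also: signal also drops with host cell toxicity which is not excluded here; 0% = plate median of DMSO wells and 100% = zero luminescence signal; higher percent means less beta-gal luminescence so fewer parasites; stock transfer was 50 nL into about 50 µL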
Beta cell apopt: inhibitors of cytokine-induced beta cell apoptosis, primary screen, luminescence. 300,000 tested, 0.8% active. AID 435005, 2010. INS-1E cytokine-induced death, ATP luminescence, 48 h; percent of positive-control rescue, neutral wells zero. protection from apoptosis, % (no concentration beside the values);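 active = all replicates at 75% or more, or half of them and the mean; inconclusive = half reach 75% but not the mean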;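 also: 0% = cytokine-treated negative control wells and 100% = positive control rescue; higher means more ATP so stronger rescue from cytokine killing; wells of about 40 µL received 100 nL stock; the first replicate is given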
FGF22 binding: binders of human FGF22 protein, primary screen, FGF22 synaptogenesis inhibitor project, biophysical, thermal shift, single point | recombinant FGF22 thermal shift, SYPRO orange fluorescence; percent of sucrose octasulfate shift, DMSO zero | calls only at 9.99 µM | 340,000 tested, 1.5% active | AID 651658, 2012 | Fibroblast growth factor 22 (Homo sapiens), Q9HCT0;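 active = melting point raised past a set limit in the mean and every replicate; inconclusive = no clear call; three in four hits are not shown here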
Target sequence (Q9HCT0 whole entry, looked up): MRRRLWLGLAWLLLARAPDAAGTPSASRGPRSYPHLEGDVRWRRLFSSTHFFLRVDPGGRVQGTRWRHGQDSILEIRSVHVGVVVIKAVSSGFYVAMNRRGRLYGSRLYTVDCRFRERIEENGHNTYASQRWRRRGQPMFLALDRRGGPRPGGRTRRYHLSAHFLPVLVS
Ecoli rRNA inh OD600: recorded beside Ecoli rRNA inh, whose call it bears; OD600 change, %; measured here: OD600 growth;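 optical density of the mix in the first replicate; 0 = DMSO median and -100 = no signal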
Ecoli rRNA inh RFP: further read-out of Ecoli rRNA inh, marked with its call; RFP signal change, %; measured here: RFP humanized mutant strains;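 first replicate; 0 = DMSO median and -100 = no signal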
* = called active by the depositor; i = inactive; ? = inconclusive; . = not tested or not shown. Some of the compounds tested; rates above refer to the full screens.

smiles,AF4-AF9 inh,Calb FLC,Ecoli rRNA inh,Ecoli rRNA inh OD600,Ecoli rRNA inh RFP,ALR inh,RanGTP-Impb inh,T cruzi inh,Beta cell apopt,FGF22 binding
O=C(CSc1ncccn1)NC(=O)NCc1ccco1,-1.0,-6,14,14,1.9,21,-1.6,-2,0,i
NS(=O)(=O)c1ccc(NC(=O)COC(=O)CCc2nc3ccccc3c(=O)[nH]2)cc1,0.0,.,10,17,-2.3,1,.,.,2,i
CN(C)N1C(N)=C(C#N)C(c2cccs2)C2=C1CC(C)(C)CC2=O (stereo not given),-1.1,-11,-3,-14,0.9,6,?,2,.,i
COc1ccccc1NC(=O)CCc1nc2sc3c(c2c(=O)[nH]1)CCCC3,-1.0,-4,-3,-14,-2.6,33,1.0,-3,-1,i
CC(=O)Nc1ccc2c(CN3C(=O)NC(C)(c4ccc(C)cc4)C3=O)cc(=O)oc2c1 (stereo not given),1.0,-1,-15,-13,-2.4,7,-0.5,-9,-3,.
O=C(CSc1ccccc1)NC1CCCCCCC1,1.2,-12,-32,-40,-7.6,-1,-1.7,-2,.,i
CC1=C(C(=O)OCc2ccccc2)C(c2ccc([N+](=O)[O-])cc2)NC(=O)N1C (stereo not given),0.6,3,-12,-15,-1.7,-8,0.0,14,1,i
CCOC(=O)c1c(C)n(C)c2c(C)cc(O)c(OC(=O)CC)c12,.,-1,.,.,.,-1,-0.2,4,-5,.
CC(C)CNC(=O)c1cccc(NC(=O)c2ccc3c(c2)C(=O)N(C)C3=O)c1,0.7,4,-3,8,0.7,1,-5.4,-4,-3,i
O=C(CSc1nnc(-c2ccc(F)cc2)c2ccccc12)Nc1cccc(Cl)c1,0.7,-12,-2,-1,3.6,-9,-4.3,60*,0,i
CCC1=C(OC(=O)N(CC)CC)N2C(=O)OC(=NCCOC)[C@]2(Cc2ccccc2)[C@H]2C1=CC[C@H]1C(=O)N(C)C(=O)[C@H]12,.,13,13,10,2.4,.,-0.2,0,-3,i
COc1ccc(CNC(=S)NCc2ccc(F)cc2)cc1,-1.5,3,-2,-19,0.1,0,0.8,9,1,i
CC(Oc1ccc(Br)cc1)C(=O)Nc1cc(S(=O)(=O)N2CCOCC2)ccc1N1CCCC1 (stereo not given),-11,12,2,10,1.5,.,0.1,16,7,i
COc1ccc(OC)c(NC(=O)C2CCN(C(=O)c3cccs3)CC2)c1,-2.0,6,1,1,-1.6,-8,0.1,10,-7,i
COc1cc(NS(=O)(=O)c2ccc(NC(=S)NC(=O)c3ccc(F)cc3)cc2)nc(OC)n1,-0.2,17,-2,-3,-0.2,34,5.7,8,4,i
COc1cccc(CNS(=O)(=O)c2ccc(S(=O)(=O)N3CCCC3)cc2)c1,-2.1,-7,19,18,0.2,-15,1.7,12,0,i
CN(Cc1ccccc1)C(=O)CCS(=O)(=O)c1ccc2c(c1)NC(=O)CS2,.,-3,.,.,.,-1,1.7,-2,-2,.
Cc1cc(C(F)F)nn1CC(=O)N1CCSCC1,.,-2,.,.,.,-4,-0.3,-9,-5,.
CC(Sc1nnc(CNC(=O)c2ccco2)n1C)C(=O)Nc1nccs1 (stereo not given),1.1,32,-3,4,0.3,.,3.8,1,-3,i
O=C(Nc1ccc(F)cc1)C(c1ccccc1)N1CCN(CC(=O)N2CCOCC2)CC1 (stereo not given),-0.3,.,15,8,1.0,-1,.,.,-3,i
CC(C)NS(=O)(=O)c1ccc(OCC(=O)N2CCCC2)c(Cl)c1,.,-2,.,.,.,-4,.,5,-3,.
CC(C)(C)C(=O)OCCNc1nc(-c2ccccc2)nc2ccccc12,.,?,.,.,.,-4,2.3,-31,0,.
CCOc1ccccc1N(CC(=O)Nc1cccnc1)S(=O)(=O)c1ccc(C)cc1,-0.1,15,-18,-25,1.3,-15,-1.1,-1,4,i
O=C(Nc1cc([N+](=O)[O-])ccc1N1CCCC1)c1ccco1,0.5,-10,-11,3,-1.8,-9,.,.,-1,i
Cc1ccnc(NC(=O)c2ccc(COc3ccc(Cl)cc3)o2)c1,.,4,.,.,.,4,-1.6,1,-31,.
Cc1cccc(C)c1CC(=O)N1CCOCC1,-3.1,-13,9,3,0.6,-25,-2.2,-10,-6,i
Cc1oc(-c2ccccc2F)nc1CN1CCC(C(=O)NC2CCCc3ccccc32)CC1 (stereo not given),.,-26,.,.,.,0,-0.3,19,4,.
O=C1OCCN1CCN(CN1C(=O)CCC1=O)CN1C(=O)CCC1=O,.,-9,.,.,.,-1,0.1,5,-9,.
CCOc1ccccc1N1CCN(C(=O)Nc2ccc(F)c(Cl)c2)CC1,.,-2,.,.,.,-3,0.0,6,12,.
COc1ccc(NS(=O)(=O)c2cccc(C(=O)NNC(=O)COc3ccccc3)c2)cc1,-16,3,-2,4,-0.2,-1,1.9,2,-5,i
CCOc1ccc(CCNC(=O)COC(=O)c2cccc(OC)c2O)cc1OCC,-1.3,0,12,18,0.9,-11,-1.4,-10,-4,i
COc1cccc(/C=C/C(=O)OCC(=O)NCc2ccc3c(c2)OCO3)c1,-7.1,.,4,-1,0.6,-3,.,.,-2,i
COc1ccccc1OCCNC(=O)CSC(=S)N1CCCC1,-3.3,1,16,12,3.9,2,-5.1,-9,-3,i
CC(=O)N1N=C(c2cccs2)CC1c1cc2cc(C)ccc2nc1Cl (stereo not given),.,-4,2,-9,-0.6,-1,-0.2,-5,.,i
O=C(O)CCC(=O)N1CC=C(c2ccccc2)CC1,.,-14,.,.,.,-16,-1.5,15,0,.
Cc1cc(Cl)c(OCCCCN2CCOCC2)c(Br)c1,6.5,4,4,3,-0.8,4,-1.5,8,0,i
Cc1nc(Nc2nc(CSc3nc4ccccc4[nH]3)cc(=O)[nH]2)nc2ccccc12,.,14,.,.,.,-3,-2.4,31,5,.
Cc1nc(Nc2ccc(C(=O)O)cc2)nc(Nc2ccc(C(=O)O)cc2)c1[N+](=O)[O-],-2.3,17,4,6,-4.0,.,-1.3,-12,-7,i
COc1cc(CN2CCN(C(C)C)C(CCO)C2)ccc1OCc1ccccc1 (stereo not given),3.2,7,5,2,-0.9,-5,-1.8,31,1,i
Cc1cccc(N=C2NC(=O)/C(=C/c3cccnc3)S2)c1,.,0,7,4,1.8,-3,-3.1,.,-9,i
COCC(C)N=Cc1c(O)[nH]c2ccccc12 (stereo not given),.,14,.,.,.,99*,-1.6,-10,-1,.
O=C(c1ccc(Cl)c(S(=O)(=O)N2CCOCC2)c1)N1CCCCC1,-11,1,3,5,-3.2,-2,-1.0,5,-4,i
Cc1ccc(NC(=O)CSc2nnc3ccccn23)cc1,-0.7,-8,-1,9,2.0,-4,0.2,-13,-11,.
CC(=O)c1cccc(CN2CCC(n3nccc3NC(=O)CCc3ccccc3)CC2)c1,.,-5,.,.,.,-7,7.6,9,.,.
COc1cc(N)c(Cl)cc1C(=O)OCC(=O)NC(=O)NCc1ccco1,3.1,.,-5,1,1.6,-2,.,.,-5,i
CCN(CC)C(=O)CSc1nc2c(sc(=S)n2-c2ccccc2OC)c(=O)n1-c1ccccc1,4.9,5,1,-4,6.2,.,?,29,.,i
Cc1ccc(OCCC(=O)OCC(=O)N2c3ccccc3CC2C)cc1 (stereo not given),.,1,.,.,.,12,2.0,-6,-4,.
CCOc1ccc(NC(=O)CN(C)C(=O)C2COc3ccccc3O2)cc1OCC (stereo not given),-0.9,.,1,-14,2.5,-4,.,.,-7,i
O=C1CC(C(=O)Nc2cccc(Cl)c2)n2ncnc2N1 (stereo not given),-1.4,6,16,13,-1.1,15,5.6,3,1,i
O=C(/C=C/C(=O)N1CCc2ccccc2C1)N1CCc2ccccc2C1,-1.4,-3,-22*,-12*,4.7*,85*,4.2,4,-6,i

Additional structures
smiles,AF4-AF9 inh,Calb FLC,Ecoli rRNA inh,Ecoli rRNA inh OD600,Ecoli rRNA inh RFP,ALR inh,RanGTP-Impb inh,T cruzi inh,Beta cell apopt,FGF22 binding
COc1ccccc1CNCC(=O)Nc1ccc(C#N)cc1,3.0,-3,12,9,2.1,.,1.3,-4,-4,i
CCC(=O)NC(C)c1cc(Cl)c2cccnc2c1O (stereo not given),-19,.,-16,-19,-16,-4,.,.,-7,i
CCn1c(CCNC(=O)c2cccs2)nnc1SCC(=O)Nc1ccc(Cl)cc1,.,32,.,.,.,-12,9.7,-19,.,.
O=C(NCCc1nnc2ccc(NCC3CCCO3)nn12)c1ccccc1 (stereo not given),-2.1,19,8,7,-0.2,-5,-0.6,2,0,.
O=C(Nc1cccc2ccccc12)C1CCN(C(=O)Cc2ccccc2)CC1,.,-2,.,.,.,-33,-3.5,-15,2,.
CCOC(=O)c1ccc(N2C(=O)CC(C(=O)OC)=C2C)cc1,.,4,.,.,.,16,0.0,-1,0,.
CC(C)c1cccc(C(C)C)c1NC(=S)Nc1cccc(Cl)c1,1.2,16,-26*,-2.4*,-2.8*,-2,-3.1,-17,2,i
Cc1nc2c(C(=O)N3CCCCC3)cnn2c(C)c1Cc1ccccc1F,.,19,.,.,.,1,1.2,14,2,.
CC(=O)c1ccccc1NC(=O)COC(=O)CCC1CCCC1,-9.4,.,3,-3,-4.0,.,.,.,-4,i
CC(=O)Nc1cccc(NC(=O)CS(=O)(=O)c2cn(CC(=O)N(C(C)C)C(C)C)c3ccccc23)c1,-1.2,1,9,27,4.8,-13,7.2,-1,-14,i
CCOc1ccc(C(=O)Nc2cc(S(=O)(=O)Nc3ccccc3Cl)ccc2N2CCOCC2)cc1,2.9,3,-5,-3,5.8,-3,1.9,30,12,i
CC1CC(C)CN(C(=O)c2ccc(N3CC4CC(C3)c3cccc(=O)n3C4)c([N+](=O)[O-])c2)C1 (stereo not given),.,10,.,.,.,0,2.4,5,-4,.
CC1CN(C(=O)CCC(=O)NCCCN2CCN(Cc3ccccc3)CC2)c2cc(Cl)ccc2O1 (stereo not given),3.5,-9,6,0,7.0,-3,2.5,-22,-3,i
CCN(CC)S(=O)(=O)c1cccc(C(=O)N[C@H](C(=O)Nc2nc3ccc(F)cc3s2)C(C)C)c1,-6.7,7,16,10,5.1,.,0.7,26,5,i
Cc1cc2nn(-c3ccccc3)nc2cc1NC(=O)c1cccs1,?,-2,12,21,1.9,-4,2.5,9,1,i
COc1ccc2c(c1)[nH]c(=O)c1sc3ccccc3c12,.,6,.,.,.,-14,-1.2,11,22,.

Assay outcomes as filed in PubChem.
